gsp ag – agonists of gsp mutant (McCune-Albright syndrome) | gsp mutant cells, cAMP HTRF, 30 min; control for the full effect not named in the record | Potency, µM (titrated, usually from 76.9 µM), without a hit: top-dose activation (cAMP increase), most hits filed as activators | 0.13% of 340,000 active; active = well fitted activation curve with a large enough effect; inconclusive = small, poorly fitted or top-dose-only effect, or another doubt; inactive = no such curve, though single readings can be large or run the other way; cell line not stated here;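 note: phosphodiesterase inhibitor Ro 20-1724 added with compounds to block cAMP breakdown; potency is the fitted concentration of half-maximal effect; nearly all actives have a fitted effect of over 60% in size; about a fifth of the inactives were tested at one dose only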
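Cells in DMEM/10% FBS with G418 were pretreated with compounds in DMSO plus […] (300 uM stock) for 30 min at 37C. cAMP was measured by HTRF (cAMP-d2 plus anti-cAMP antibody-K) after 30 min at room temperature.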
Menin MLL FP FL – displaces fluorescein MLL peptide from human menin. Fluorescence polarization, fluorescein-MLL peptide displacement from menin. FP activity change, % at 61.4 µM. 290,000 tested, under 10 active. AID 1766; inconclusive = falling polarisation curve, or a change in total fluorescence; inactive = total fluorescence flat and polarisation flat or rising; no compound was filed as active; the % refers to the polarisation; negative = inhibition;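 note: % of control where 0% means no effect; inhibitors lower the polarisation; unlabelled MLL peptide was the positive control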
Sfp inh – blocks B. subtilis Sfp PPTase activity; Biochemical Sfp PPTase activity, qHTS; Potency, µM, for the others: max response, negative = inhibition, hits mostly inhibitors; 3.5% of 310,000 active; AID 1490; active = well fitted inhibition curve with a large enough effect; inconclusive = small, poorly fitted or top-dose-only effect, or another doubt; inactive = no such curve, though single readings can be large or run the other way;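 note: the enzyme is Sfp with the accession as filed and its product quenches rhodamine fluorescence; potency is the fitted concentration of half-maximal effect; 0% = enzyme reaction without inhibitor and -100% = no enzyme wells; top concentration of the series not given in the record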
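Compounds were incubated with enzyme (final 15 nM) for 15 min at room temperature before substrate addition started the reaction. Fluorescence at 525 nm excitation, 598 nm emission was recorded immediately and after 30 minutes.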
ClpP mod – qHTS Assay for Activators of ClpP | ATP-dependent Clp protease proteolytic subunit (Bacillus subtilis (strain 168)), P80244 | purified B. subtilis ClpP, FRET peptide cleavage, 20 min | Potency, µM (titrated, usually from 57.5 µM), without a hit: at the highest dose activity change, negative = active | 1.9% of 340,000 active | AID 651965, 2013; active = well fitted falling curve with a large enough effect; inconclusive = small, poorly fitted or top-dose-only effect; inactive = no such curve, though single readings can be large or run the other way; note: potency is the fitted concentration of half-maximal effect; the source files actives as falling curves though it sought activators and does not explain the sign; nearly all actives have a fitted effect of over 65% in size; many hits overshoot -100%
Target sequence (P80244 whole entry, looked up): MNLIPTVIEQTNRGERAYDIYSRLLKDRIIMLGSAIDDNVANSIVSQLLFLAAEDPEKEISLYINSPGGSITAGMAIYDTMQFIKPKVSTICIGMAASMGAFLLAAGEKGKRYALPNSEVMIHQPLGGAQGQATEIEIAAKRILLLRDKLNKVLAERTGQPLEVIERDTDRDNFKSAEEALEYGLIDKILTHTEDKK
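ClpP 10 microg/mL final, pH 8 Tris/KCl buffer with BSA, glycerol, Tween-20; compound pinned in; FRET-FV substrate; RT 20 min; Ex320/Em430; ΔFRET vs ADEP 5.8 microM, DMSO, no enzyme.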
D2 potentiator – human D2 receptor positive allosteric modulation | AID 624464 | potentiation, % (no concentration beside the values) | 0.23% of 360,000 active | DiscoveRx D2 beta-arrestin cells, luminescence, 90 min; 100% = 57 uM dopamine signal | P14416; active = potentiation of 50% or more; inconclusive = 30% to 50%; inactive = 30% or less;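 note: compound concentration not given in the record; tested on top of an EC20 dose of dopamine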
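PathHunter beta-arrestin assay in DiscoveRx D2 cells. Compounds were added with an EC20 of dopamine (50 nM final) for 90 min at 37 deg C. Luminescence was read 1 h after detection reagent, with 57 uM dopamine as the EC100 control.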
TRPV1 PAM – enhances activation of the human vanilloid receptor TRPV1 | potentiation, % at 8.33 µM | Q8NER1 | TRPV1-expressing cells, Fluo-8 calcium influx, capsaicin EC20 potentiation; host cell line not named in the record; control for the full effect not named in the record | 0.02% of 320,000 active; active means potentiation above 80%; inconclusive means 30% to 80%; inactive means below 30%; note: 0% is about no effect
Target sequence (Q8NER1 whole entry, looked up): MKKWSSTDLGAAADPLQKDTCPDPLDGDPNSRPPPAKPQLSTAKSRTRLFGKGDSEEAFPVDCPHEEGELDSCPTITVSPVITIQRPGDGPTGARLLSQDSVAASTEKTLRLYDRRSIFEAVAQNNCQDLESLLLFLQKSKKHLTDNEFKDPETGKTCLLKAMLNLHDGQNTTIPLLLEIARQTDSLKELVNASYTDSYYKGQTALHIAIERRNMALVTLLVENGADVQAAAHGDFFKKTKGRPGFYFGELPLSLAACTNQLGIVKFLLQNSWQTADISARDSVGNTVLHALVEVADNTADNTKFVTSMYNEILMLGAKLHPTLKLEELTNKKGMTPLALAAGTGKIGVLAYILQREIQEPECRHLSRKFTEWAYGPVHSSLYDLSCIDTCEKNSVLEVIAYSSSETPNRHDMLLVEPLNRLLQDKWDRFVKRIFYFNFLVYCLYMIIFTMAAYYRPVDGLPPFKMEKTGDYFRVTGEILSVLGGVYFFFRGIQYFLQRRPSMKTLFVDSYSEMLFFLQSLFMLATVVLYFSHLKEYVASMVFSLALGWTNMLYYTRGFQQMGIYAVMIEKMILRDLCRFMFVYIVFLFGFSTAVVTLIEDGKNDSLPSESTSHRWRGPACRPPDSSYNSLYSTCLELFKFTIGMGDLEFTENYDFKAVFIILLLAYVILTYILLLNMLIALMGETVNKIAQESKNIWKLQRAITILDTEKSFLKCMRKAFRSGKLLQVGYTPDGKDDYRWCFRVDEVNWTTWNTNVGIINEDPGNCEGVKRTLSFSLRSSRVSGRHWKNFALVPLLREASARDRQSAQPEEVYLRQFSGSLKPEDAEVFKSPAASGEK
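TRPV1-expressing cells were cultured overnight at 35.5C and loaded with Fluo-8 calcium dye for 40 to 90 min at room temperature. After a 10 s baseline, compound was added and calcium influx was read kinetically for 3 min (ex 480/em 520 nm).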
gsp antag – antagonizes gsp, the McCune-Albright syndrome mutation; gsp-mutant cells, cAMP HTRF, 30 min; control for the full effect not named in the record; Potency, µM (titrated, usually from 76.9 µM), without a hit: at the top dose activity change, negative = inhibition, hits mostly inhibitors; 0.4% of 340,000 active; active = falling curve of any shape with a large fitted effect; inconclusive = falling curve, mostly with a smaller effect; inactive = flat or rising curve; cell line not stated here;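 note: intracellular cAMP measured with PDE inhibitor Ro 20-1724 present during compound exposure; potency is the fitted concentration of half-maximal effect; % is set by controls: 0 for no effect and ±100 for the full control effect; nearly all actives have a fitted effect of over 65% in size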
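G418-selected cells were plated in DMEM/10% FBS for 16-24 h at 37C, then treated with compounds plus the PDE inhibitor […] (300 uM solution added) for 30 min at 37C. Intracellular cAMP was measured by HTRF after 30 min lysis at room temperature.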
* hit, by the source's call; ? = inconclusive; · = no result given; & = joins results of further samples; [ ] = dose if it differs, or a comment.

SMILES | gsp ag | Menin MLL FP FL | Sfp inh | ClpP mod | D2 potentiator | TRPV1 PAM | gsp antag
COc1cc(/C=N/NC(=O)CSc2nc3ccccc3n2C)cc(OC)c1OC | 31% | 2.7 | 20% | -2.9% | -21 | 4 | -4%
CC(/C=N/NC(=O)c1nnn(-c2nonc2N)c1C(C)C)=C\c1ccccc1 | 7% | -0.9 | -6% | 0.1% | -1 | -9 | ?
Cc1ccc(C)c(NC(=O)CS(=O)(=O)c2cn(C)c3ccccc23)c1 | -25% | -0.9 | -5% | 0.4% | -1 | -31 | 1%
Cn1c(=O)n(CC(=O)OCc2ccccc2)c(=O)c2c1nc1n2CCCN1C1CCCCC1 | -35% | · | · | -4.9% | -17 | · | -11%[15.4 µM]
COc1ccc(C(CCN(Cc2ccc(OC)c(OC)c2)C(=O)CCl)c2ccccc2)cc1 (stereo not given) | -2% | 4.6 | -14% | 0.7% | -19 | -3 | -25%
CC(/C=C/c1cccs1)=C\C(=O)O | 4% | 4.6 | -17% | 1.1% | -13 | 3 | -1%
CCCCn1c(CN2CCN(c3cccc(Cl)c3)CC2)nc2c1c(=O)[nH]c(=O)n2C | -15% | -3.6 | 6% | -0.6% | -26 | -10 | 11%
O=C(NCCCN1CCOCC1)c1ccc2c(=O)n(Cc3ccccc3)c(=S)[nH]c2c1 | -11% | 5.7 | 5% | · | -13 | -3 | -8%
N/C(=N\S(=O)(=O)c1cccs1)c1ccccc1Cl | -14% | · | 15% | -1.5% | -1 | -11 | -3%
COc1ccc(CN2CC[C@H]3C=CCc4cccc(c43)C2)cc1 | · | · | · | -2.4% | -13 | -2 | 3%
Cc1cccc(NC(=O)CNC(=O)COc2cc(F)ccc2[N+](=O)[O-])c1C | -4%[15.4 µM] | -0.5 | 24% | · | -1 | 6 | 0%
O=C(N/N=C\c1ccc(CNS(=O)(=O)c2ccc(Cl)cc2)o1)C(=O)Nc1ccc(Oc2ccccc2)cc1 | -4%[15.4 µM] | 5.0 | 23% | 0.5% | -3 | 0 | 10%
CN(CC(=O)NCCC1=CCCCC1)S(=O)(=O)c1ccc2c(c1)CCC(=O)N2 | ? | 1.1 | 9% | -2.7% | -4 | -7 | 4%
O=C(CNC(=O)c1ccc(F)cc1)N/N=C/c1ccc(O)c([N+](=O)[O-])c1 | -28% | 2.8 | 14% | -1.4% | -28 | -7 | 4%
O=C1CCCN1CCCNC(=S)Nc1ccccc1 | -1%[15.4 µM] | 6.1 | -29% | 2.4% | -7 | -9 | 4%
Cc1ccc(-c2nc3ccccc3nc2-c2ccccc2)cc1 | 3% | 0.4 | -19% | · | 0 | 1 | -6%
CC1(C)CC(=O)c2cnn(-c3nc4ccccc4[nH]3)c2C1 | 5% | 2.6 | 18% | -8.5% | -3 | 1 | 16%
C=CCC1(CC=C)CCCN1C(=O)CC1C(=O)NCCN1Cc1cccc(OC)c1 (stereo not given) | 7%[15.4 µM] | 2.2 | 7% | · | -3 | -2 | -2%
Cc1cn(S(=O)(=O)c2ccc(Br)cc2)cn1 | -29% | -1.5 | 7% | 0.0% | -5 | 10 | 8%
O=S(=O)(NC1CCCCC1N1CCCCC1)c1ccc(Cl)cc1 (stereo not given) | -5% | -0.5 | 9% | 0.1% | 1 | -5 | 14%
O=C(O)c1ccc(CSc2nnc(-c3ccccc3Br)o2)cc1 | -13% | -0.7 | 0% | -1.1% | -1 | ? | ?
Cc1ccc(NS(=O)(=O)c2ccc3c(c2)CC(=O)N3)cc1C | -11% | 3.3 | 5% | 5.2% | -4 | 5 | 0%
COc1cc(OC)cc(C(=O)N[C@H](C(=O)OCC(=O)Nc2ccc(F)c(F)c2F)C(C)C)c1 | -5%[15.4 µM] | 4.6 | 32% | -28% | -40 | 5 | -22%
COc1ccc(NC(=O)c2oc3ccc(S(=O)(=O)N4CCC5(CC4)OCCO5)cc3c2C)cc1 | 6% | 2.3 | -14% | -9.4% | 22 | -5 | -26%
Cc1cccc(NC(=O)CNC(=O)c2sc3ccccc3c2Cl)n1 | 7%[15.4 µM] | · | · | · | -1 | 6 | -8%
CC(C)c1nc(N2CCOCC2)c(C#N)c2c1CCC2 | 0% | -0.1 | -2% | 25µM* | -9 | -15 | 35µM*
C=CCN1C(=O)CSc2ccc(C(=O)NCc3cccs3)cc21 | 10%[15.4 µM] | -0.7 | 9% | · | 2 | ? | -2%
O=C(NCCCn1ccnc1)C(=O)NCC1OCCN1S(=O)(=O)c1ccc2c(c1)OCCO2 (stereo not given) | 14%[15.4 µM] | -0.2 | 18% | · | 2 | 9 | 7%
Cc1cc2n(n1)C(c1ccccc1)Nc1ccccc1-2 (stereo not given) | 5% | 3.7 | -1% | 25µM* | 0 | 8 | -10%
CCCc1cc(=O)[nH]c(SCC(=O)N2CCN(c3ccc(F)cc3)CC2)n1 | -11% | 0.8 | 5% | -0.9% | -25 | ? | -7%
Cc1cc(C)cc(NC(=S)N2CCC(C(=O)c3ccc(F)cc3)CC2)c1 | -28% | · | · | 1.8% | -28 | · | 3%
CCOc1ccccc1NC(=O)C1CCC(=O)N1S(=O)(=O)c1ccc(C)cc1 (stereo not given) | -23% | · | 15% | -1.0% | -13 | -6 | -1%
Cc1ccc(NC(=O)C2CCN(S(=O)(=O)c3c(C)noc3C)CC2)cc1C | ? | -2.2 | 15% | -0.5% | -4 | -8 | -3%
CCOC(=O)c1cc(C#N)c(N2CCCNCC2)nc1C(F)(F)F | -16% | -1.2 | 13% | -16% | -1 | ? | -4%
O=C(O)CC(CC(=O)Nc1ccc(-c2ccccc2)cc1)c1ccccc1 (stereo not given) | -36%[inhibitor] | 0.6 | 12% | -0.7% | -7 | 24 | -20%
O=C(Cc1cccs1)N/N=C/C=C\c1ccco1 | 15%[15.4 µM] | ? | 7.9µM* | · | -14 | 6 | -2%
C/C(CC1CC(C)(C)OC1=O)=N/Nc1nc(-c2ccccc2)cs1 (stereo not given) | -25% | 4.6 | 50µM* | -0.9% | 5 | -9 | -11%
CC(=O)Nc1ccc(S(=O)(=O)N2CCN=C2SCc2ccc(F)cc2)cc1 | 12% | · | -13% | -0.6% | -3 | 11 | -7%
CCOC(=O)[C@H]1[C@H]2COc3ccccc3[C@@H]2N2C(=O)[C@@H](CO)NC(=O)[C@@]12C | -32% | · | · | -1.0% | -10 | 3 | -1%
CCCCC(CCC(=O)Nc1ccn(-c2ccccc2)n1)C(=O)O (stereo not given) | 4% | 8.1 | 14% | 0.0% | -4 | -3 | 5%

Compound profiles, as listed above. Screens in order: gsp ag	Menin MLL FP FL	Sfp inh	ClpP mod	D2 potentiator	TRPV1 PAM	gsp antag
Results for CC(=O)Nc1ccc(S(=O)(=O)N2CCN=C2SCc2ccc(F)cc2)cc1 → 12%	·	-13%	-0.6%	-3	11	-7%
Results for CCOc1ccccc1NC(=O)C1CCC(=O)N1S(=O)(=O)c1ccc(C)cc1 (stereo not given) → -23%	·	15%	-1.0%	-13	-6	-1%

Continued.
SMILES | gsp ag | Menin MLL FP FL | Sfp inh | ClpP mod | D2 potentiator | TRPV1 PAM | gsp antag
Cc1nc2oc(C(=O)c3ccc(Br)cc3)c(N)c2c2c1COC(C)(C)C2 | 8% | -0.1 | -7% | -9.5% | 13 | -10 | -9%
CS(=O)(=O)N1CCCC(C(=O)NCCCN2CCc3ccccc3C2)C1 (stereo not given) | 11% | 5.3 | -20% | -2.4% | -29 | -2 | 4%
COC(=O)Nc1ccc(S(=O)(=O)N2CCC(C(=O)NCc3ccc4c(c3)OCO4)CC2)cc1 | 15% | · | · | · | -2 | · | -7%
CN(C)CCNC(=O)C(=O)Nc1ccc2c(c1)N(S(=O)(=O)c1cccs1)CCC2 | 6% | · | · | -6.8% | -11 | 5 | 12%
COc1ccc(NC(=S)Nc2ccc(N(C)C(C)=O)cc2)cc1 | -2%[15.4 µM] | -1.5 | -27% | · | 3 | 22 | ·
O=C(CCC(=O)N1CCN(c2ccc(F)cc2)CC1)N1CCN(c2ccc(F)cc2)CC1 | 5% | -1.3 | 5% | -1.9% | -3 | 23 | -17%
Cc1nn(C)c(C(=O)Nc2ccc(S(=O)(=O)NC34CC5CC(CC(C5)C3)C4)cc2)c1Br | -11% | -5.1 | -11% | 0.1% | -11 | 81* | -21%
Cc1cc(SCC(N)=O)nc(SCC(=O)c2ccccc2)n1 | 12% | -1.8 | 45µM* | 0.6% | -7 | 13 | 1%
O=C(Nc1cccnc1)c1cc2cc(Br)ccc2o1 | -37%[inhibitor] | -5.9 | 3% | -6.4% | 0 | -13 | -6%
CCN(C(=O)Nc1cccc2ccccc12)c1ccccc1 | ? | · | · | 4.2% | -16 | · | ·
COc1ccc2[nH]c(C(=O)O)c(CCN3C(=O)c4ccc(C(=O)O)cc4C3=O)c2c1 | -2%[15.4 µM] | 1.0 | 4% | 0.2% | -11 | 13 | 13%
O=C1CCN(Cc2ccc([N+](=O)[O-])cc2)CCN1[C@H](CO)c1ccccc1 | -7% | -1.8 | -3% | 2.4%&-1.5% | -10 | -13 | 8%
O=C(N=c1ccn(-c2nc3ccccc3nc2NS(=O)(=O)c2ccccc2)cc1)c1ccccc1Cl | 26% | ? | 15% | -3.8% | -13 | 6 | -10%
COc1ccc(N2CCN(C(=S)Nc3cccc(C)c3)CC2)cc1 | -4% | 1.0 | 14% | 0.0% | 2 | -1 | 4%
Cc1ccc(NC(=O)COC(=O)CN2CSCC2=O)cc1C | -2% | -7.9 | 2% | -0.7% | -3 | 25 | -15%
O=C1CC(N2CCN(Cc3ccc4c(c3)OCO4)CC2)C(=O)N1c1cccc(Cl)c1 (stereo not given) | 7% | 0.3 | -1% | -0.3% | -4 | -4 | -2%
COc1ccc(N2C(=O)c3ccccc3NC2c2ccc(OC)c(Cn3nnc4ccccc43)c2)cc1 (stereo not given) | ? | 7.2 | 10% | 32µM* | -13 | 1 | 4%
CC(C)[C@@H](C(=O)N[C@@H](C(=O)O)c1ccccc1)N1C(=O)N2CCc3c([nH]c4ccccc34)[C@@]2(C)C1=O | · | -7.5 | 14% | -2.5% | -23 | -3 | 4%
Cc1ccc(NC(=O)/C(=C\c2cccc([N+](=O)[O-])c2)NC(=O)c2cccs2)cc1 | 8% | 2.2 | 9% | -2.3% | -1 | · | 1%

Assay outcomes as filed in PubChem BioAssay.
